# RE007 growth inh: less growth of the S. pombe RE007 Vpr strain; S. pombe RE007 Vpr strain, BacTiter-Glo ATP luminescence, 24 h; control for the full effect not named in the record; Potency, µM (series often up to 92.2 µM), for the others: top-dose activity change, negative = less growth; hit rate 0.21% among 360,000; AID 651644; active = well fitted falling curve with a large enough effect; inconclusive = small, poorly fitted or top-dose-only effect; inactive = no such curve, though single readings can be large or run the other way;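 further: on the % scale 0 is the no-effect control and ±100 the full control effect; nearly all actives have a fitted effect of over 50% in size; the assay follows cell death caused by Vpr and the record does not say whether a fall means rescue or toxicity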
#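 Fission yeast RE007 carrying one integrated HIV-1 vpr copy, seeded at OD 0.01 in PMG+AL medium with 23 nL pinned compound. Grown 24 h at 30 degrees; viability read by BacTiter-Glo luminescence after 5 min.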
# LASV entry inh: blocks Lassa virus binding to or entry into cells; Potency, µM (series often up to 37.9 µM), for inactives: top-dose activity change, negative = inhibition, most hits filed as inhibitors; hit rate 1.2% among 300,000; Lassa virus pseudotype entry inhibition, cell reporter; control for the full effect not named in the record; active means well fitted inhibition curve with a large enough effect; inconclusive means small, poorly fitted or top-dose-only effect, or effect the other way; inactive means flat fitted curve, though single readings scatter; tested in HEK293 cells; further: on the % scale 0 is the no-effect control and ±100 the full control effect; nearly all actives have a fitted effect of over 50% in size; luciferase read-out
# NS1 inh: inhibitors of influenza NS1 protein function | S. cerevisiae slowed by influenza A NS1, growth recovery by OD600 | Potency, µM (top dose mostly 46.1 µM), for inactives: at the highest dose activity, positive = more growth | hit rate 0.4% among 270,000 | AID 2326; further: actives are rising curves; nearly all actives have a fitted effect of over 50% in size
#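 OD600 was taken as the measure of yeast growth restored by compound in an NS1-expressing S. cerevisiae strain. Cells had been washed out of glucose medium and diluted 1:100 into galactose -URA medium, pH 6.0.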
# MARV entry inh: inhibitors of Marburg virus binding or cell entry | Marburg virus pseudotyped entry inhibition, cell reporter; control for the full effect not named in the record; about a third of the inactives were read at about 46 µM | Potency, µM (series often up to 37.8 µM), for the others: at the top dose activity change, negative = inhibition, usual class: inhibitors | hit rate 1.8% among 300,000 | AID 540276; active = well fitted inhibition curve with a large enough effect; inconclusive = small, poorly fitted or top-dose-only effect, or effect the other way; inactive = flat fitted curve, though single readings scatter; tested in HEK293 cells; about a fifth of its hits are not listed in these tables; further: on the % scale 0 is the no-effect control and ±100 the full control effect; luciferase read-out
# 2A StopGo: lowers the luciferase signal of an FMDV 2A StopGo reporter. human cells with a luciferase reporter of 2A StopGo recoding; control for the full effect not named in the record. Potency, µM (top dose mostly 57.9 µM), inactives show at the top dose signal change, negative = less light. hit rate 1.2% among 410,000. AID 1159524; active = well fitted falling curve with a large enough effect; inconclusive = small, poorly fitted or top-dose-only effect; inactive = no such curve, though single readings can be large or run the other way; tested in HEK293T cells; further: on the % scale 0 is the no-effect control and ±100 the full control effect; nearly all actives have a fitted effect of over 45% in size; luciferase light after 4 h
# Cruzain inh noDet: inhibitors of Trypanosoma cruzi cruzain without detergent. purified cruzain, Z-FR-AMC fluorescence, no detergent. Potency, µM, for the others: max response, negative = inhibition, most hits filed as inhibitors. AID 1476. hit rate 2.3% among 200,000. P25779; active means well fitted curve in the direction sought with a large enough effect; inconclusive means small, poorly fitted or top-dose-only effect, or another doubt; inactive means no such curve, though single readings can be large; an effect the other way counts as inactive or inconclusive;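 further: plate controls were enzyme without inhibitor for no effect and buffer without enzyme for full effect; nearly all actives have a fitted effect of over 40% in size; top concentration of the series not given in the record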
# Target sequence (P25779 123-467 limits assumed): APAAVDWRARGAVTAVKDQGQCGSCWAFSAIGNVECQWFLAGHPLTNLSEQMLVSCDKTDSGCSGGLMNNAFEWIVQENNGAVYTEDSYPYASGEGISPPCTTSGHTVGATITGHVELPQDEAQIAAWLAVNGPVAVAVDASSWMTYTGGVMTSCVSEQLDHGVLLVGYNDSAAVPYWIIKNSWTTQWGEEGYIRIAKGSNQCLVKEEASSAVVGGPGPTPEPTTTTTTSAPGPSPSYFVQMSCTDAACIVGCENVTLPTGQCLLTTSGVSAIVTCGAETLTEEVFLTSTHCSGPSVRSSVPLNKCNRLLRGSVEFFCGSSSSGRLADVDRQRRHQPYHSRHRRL
#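 Detergent-free condition (0.00005% Triton X-100) in acetate buffer pH 5.5 with DTT. 1.5 nM enzyme and compound were pre-mixed 15 min, then 2 uM Z-FR-AMC substrate added; reaction progress from fluorescence change between first and third reads (60 s).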
# Cruzain inh Det: cruzain (T. cruzi) inhibition with detergent. P25779. purified cruzain, Z-FR-AMC fluorescence, 0.01% Triton. Potency, µM, for inactives: max response, negative = inhibition, hits mostly inhibitors. hit rate 0.43% among 200,000. AID 1478; active means well fitted curve in the direction sought with a large enough effect; inconclusive means small, poorly fitted or top-dose-only effect, or another doubt; inactive means no such curve, though single readings can be large; an effect the other way counts as inactive or inconclusive;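 further: plate controls were neutral wells for no effect and buffer without enzyme for full effect; nearly all actives have a fitted effect of over 40% in size; top concentration of the series not given in the record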
#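 Compounds were screened in titration against cruzain (1.5 nM) with 0.01% Triton X-100 to counter colloidal aggregation. Activity was the AMC fluorescence increase over 60 s after adding 2 uM Z-FR-AMC at pH 5.5.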
# SARS PLP yeast: blocks SARS-CoV papain-like protease in a yeast assay; AID 485353; S. cerevisiae expressing SARS-CoV PLpro, growth rescue; control for the full effect not named in the record; Potency, µM (doses to about 32.9 µM), for inactives: at the highest dose activity, positive = growth rescue; hit rate 0.19% among 330,000; further: 0% is about no effect; nearly all actives have a fitted effect of over 55% in size; growth read by luminescence after 48 h
# * = called active by the depositor; ? = inconclusive; · = no result given; & = joins results of further samples; [ ] = dose if it differs, or a comment. Unless noted, the call rests on the fitted dose curve; in most records, active means well fitted rising curve with a large enough effect; inconclusive means small, poorly fitted or top-dose-only effect; inactive means no such curve, though single readings can be large or run the other way. Potency means the concentration at half of the fitted maximal effect. Compounds were not picked by outcome; 4.7% or so of the library scored in one or more.
SMILES,RE007 growth inh,LASV entry inh,NS1 inh,MARV entry inh,2A StopGo,Cruzain inh noDet,Cruzain inh Det,SARS PLP yeast
O=C(NC1CC1)c1ccc(CS(=O)c2ccc(Br)cc2)o1 (stereo not given),17%,·,0%,·,-15%,·,·,-4%
COc1ccccc1NC(=O)CSc1nccn1Cc1ccccc1,-1%,-1%,-36%,-12%,-6%,·,·,0%
Cc1ccc(/C=N/N2CCN(Cc3ccccc3)CC2)cc1,-12%,16%[46.1 µM],·,?,25%,·,·,1%
CC(OC(=O)CCC(=O)c1cccs1)C(=O)Nc1ccccc1[N+](=O)[O-] (stereo not given),1%,3%[46.1 µM],·,2%[46.1 µM],-10%,·,·,-2%
Cc1ccc(NC(=O)C(C)Sc2nc(=O)cc(N)n2-c2ccccc2)cc1 (stereo not given),-7%,-1%[46.1 µM],16%,13%&-4%[46.1 µM],-1%&-6%,-16%&-12%,-20%&-3.3%,-2%
COc1ccc(OC)c(C(=O)NC(CC(N)=O)c2ccc(NC(C)C)c([N+](=O)[O-])c2)c1 (stereo not given),3%,·,10%,·,-24%,·,·,-4%
N/C(=N\OC(=O)c1ccc(Cl)cc1Cl)c1ccccc1,-23%,8.2µM*,-106%,?,-71%,-3%,-3.0%,-5%
O=C(CN1CCCCC1)NC(=O)NCc1ccccc1,-7%,1%,30%,1%,-11%,-8%,5.3%,12%
CCOC(=O)C(NC(=O)CC)C(O)c1cccc([N+](=O)[O-])c1 (stereo not given),0%,-1%,-1%,1%,·,-1%,-1.1%,13%
O=C(CSc1ncn(-c2ccccc2)n1)NCc1ccccc1,7%,1%,-13%,-32%,-3%,-18%,-1.6%,1%
CN(C)c1ccc(C2C3CCCc4ccccc4C3=NN2C)cc1 (stereo not given),9%,·,-1%,·,21%,·,·,0%
Cc1ccccc1N1CCN(S(=O)(=O)CC23CCC(CC2=O)C3(C)C)CC1 (stereo not given),-7%,·,12%,·,?,·,·,2%
CCCNc1ccc(S(=O)(=O)N(CC)CC)cn1,-2%,27%,7%,2%,9%,-9%,-0.4%,9%
C=CCNc1ncnc2c1[nH]c1ccccc12,-2%,-13%,-15%,-24%,?,?,?,-2%
O=c1c(Cc2c(F)cccc2Cl)c(O)ccn1C1CCCCCC1,0%,·,4%,·,-6%,·,·,0%
Cc1ccc(NC(=O)CCS(=O)(=O)c2cccc3nonc23)cc1,2%,9%,·,2%,29%,·,·,-2%
COc1ccccc1NC(=O)COC(=O)CN1C(=O)C(=O)c2ccccc21,9%,0%[46.1 µM],-2%,-11%[46.1 µM],9%,·,·,1%
O=C(NC1CCCC1)C(c1cccs1)N(C(=O)c1csnn1)c1ccccc1F (stereo not given),-6%,-22%[46.1 µM],1%,-25%[46.1 µM],-13%,·,·,1%
CCc1nc(C)ccc1OCC(=O)N1CCc2c([nH]c3ccccc23)C1c1ccccn1 (stereo not given),-15%,·,0%,·,12%,·,·,0%
O=C(CNC(=O)c1ccncc1)N/N=C/c1ccc(O)cc1O,7%,·,4%,·,-20%,·,·,1%
CC(=O)N1c2ccc(S(=O)(=O)N3CCC(C(=O)N4CCC(C)CC4)CC3)cc2CC1C (stereo not given),-6%,·,-10%,·,-17%,·,·,5%
CCOc1ccc(C2SCC(=O)N2c2c(C)n(C)n(-c3ccccc3)c2=O)cc1 (stereo not given),35%,0%,-3%,5%,-7%,-7%,0.6%,-7%
Cc1ccc(CNC(=O)C2CCCN(S(=O)(=O)c3cccc4nsnc34)C2)cc1 (stereo not given),·,2%[46.1 µM],·,16%[46.1 µM],-8%,6%,-1.0%,·
CNC(=S)NNC(=O)c1cccn(Cc2ccc(Cl)cc2Cl)c1=O,·,·,5%,0%,·,2%,0.3%,4%
CCCC/C(O)=C1\C(=O)CC(C)(C)CC1=Nc1ccccc1OC,9%,3%,-63%,?,-21%,1%,-2.5%,-6%
Cc1ccccc1Cn1c(CCCNC(=O)C2CCCCC2)nc2ccccc21,·,-30%[46.1 µM],·,?,-23%,-6%,-7.7%,·
CCC(=O)C1=C(c2ccc(OC)c(OC)c2)N(C(=O)CC)n2c(CC)nnc2S1,·,-27%[46.1 µM],·,·,?,?,-8.1%,·
O=C(CNC(=O)C1COc2ccccc2O1)N/N=C\c1ccc(Br)cc1 (stereo not given),-9%,10%[46.1 µM],-5%,10%[46.1 µM],0%,·,·,0%
CCOc1ccccc1-n1c(C)cc(C=O)c1C,1%,11%,2%,-11%[46.1 µM],6%,·,·,0%
COC(=O)c1ccc(NC(=O)CN2C(=O)c3ccccc3S2(=O)=O)cc1,2%,2%,3%,-6%[46.1 µM],22%,·,·,13%
O=C(CNC(=O)c1ccc2ccccc2c1)NCc1ccc(F)cc1,-22%,-9%,3%,-18%[46.1 µM],-20%,·,·,3%
CCOCCCNS(=O)(=O)c1ccc(NC(=O)CN2C(=O)c3ccccc3C2=O)cc1,0%,23%[46.1 µM],1%,2%,-4%,·,·,4%
CCCN(CCC)c1nc(N)nc(-c2cc(Cl)ccc2OC)n1,6%,-24%,-133%,?,-6%,?,-4.7%,0%
COC(=O)c1cccc(NC(=O)c2cccnc2)c1,-8%,-1%,-2%,10%,-3%,1%,3.4%,-1%
COc1ccc(NC2=C3CC(C)CC=C3N(c3ccc(OC)cc3)C2=O)cc1 (stereo not given),4%,-26%,·,?,-21%,·,·,-3%
CC(=O)Nc1nc(-c2ccc3c(c2)CCN3C(=O)C2CC2)c(C)s1,-11%,14%[46.1 µM],4%,?,52%[activator],·,·,-2%
Cc1ccc(S(=O)(=O)N(C)c2c(C)ccc(S(N)(=O)=O)c2C)cc1,-5%,-1%,-2%,?,-20%,·,·,0%
Cc1ccc(S(=O)(=O)N2CCC3(CC2)OCCN3S(=O)(=O)c2cccs2)cc1,-14%,-26%,·,-33%,0%,·,·,-3%
Cc1noc(C)c1C(=O)NC(C)C12CC3CC(CC(C3)C1)C2 (stereo not given),-1%,·,-1%,·,-29%,·,·,-1%
O=C(COC(=O)c1ccccn1)Nc1ccc2c(c1)OCCO2,31%,8%,·,-26%,31%[activator],·,·,1%
C/C(=C\c1ccco1)C1C(C#N)=C(N)Oc2n[nH]c(-c3ccc(C)cc3)c21 (stereo not given),-1%,-25%,-4%,-1%,·,-8%,-9.5%,5%
COc1cc(C(=O)N2CCCN(C)CC2)cc(OC)c1C,3%,·,3%,·,-15%,·,·,-1%
O=C1NC(c2ccncc2)C(C(=O)c2cccs2)C(O)(C(F)(F)F)N1 (stereo not given),-9%[3.69 µM],-5%,3%,-15%,-8%,-4%,2.0%,4%
CC1(c2nnc(-c3ccncc3)o2)CC(c2c(Cl)cccc2Cl)=NO1 (stereo not given),-18%,·,1%,·,?,·,·,-1%
COc1ccc(N(CC(=O)N/N=C/c2cccs2)S(=O)(=O)c2ccccc2)cc1,-4%,?,5%,-12%[46.1 µM],4%,·,·,1%
C=CCNc1nc(Nc2ccc([N+](=O)[O-])cc2)nc(N2CCCC2)n1,-1%,-28%,·,?,?,·,·,2%
COc1c(F)c(F)c(C(=O)Nc2ccccc2N2CCN(C(C)=O)CC2)c(F)c1F,9%,-2%,-10%,10%,-6%,0%,-3.0%,·
Cc1cc(Oc2nc3c(C)cccn3c(=O)c2/C=C(\C#N)S(=O)(=O)c2ccc(Cl)cc2)ccc1Cl,4%,7%,5%,-1%,-8%,13µM*,-0.6%,5%
CCOc1ccccc1C(=O)NC(C(=O)N(C)c1c(N)n(Cc2ccccc2)c(=O)[nH]c1=O)C(C)C (stereo not given),6%,?,·,4%,-15%,·,·,·
O=c1c2oc3ccccc3c2n(Cc2cccc(C(F)(F)F)c2)c(=O)n1Cc1ccc2c(c1)OCO2,·,1%[46.1 µM],·,·,0%,-7%,-2.3%,·
COc1ccc(Cl)cc1N1C(=O)C2CCCN2C1c1ccccc1F (stereo not given),15%,·,-13%,·,-7%,0%,5.7%,8%
O=[N+]([O-])c1cc([As](=O)(O)O)ccc1O,-2%[18.4 µM],·,·,·,-23%&-11%,-1%&-12%,-12%&-0.7%,1%
O=C(Nc1nnc(SCc2ccc(F)cc2)s1)C1CC(=O)N(Cc2ccccc2)C1 (stereo not given),2%,8%,22%,?,-19%,?,-7.2%,-10%
CS(=O)(=O)N(CC(=O)NCCC1=CCCCC1)c1ccc2c(c1)OCO2,-2%,?,-20%,-4%,0%,2%,0.8%,-3%
O=C(O)CCN1C(=O)c2ccc(NC(=O)c3cccs3)cc2C1=O,12%,7%,8%,16%,·,-3%,4.6%,0%
Cc1ncc(CN2CCCC(CCC(=O)NCc3ccc(F)c(F)c3)C2)s1 (stereo not given),-5%,9%,2%,?,-10%,·,·,-1%
Cc1c(Cl)ccc2sc(N3CCN(C(=O)c4ccco4)CC3)nc12,·,5%[46.1 µM],·,·,3%,-6%,-9.9%,·
CC(Sc1nc(-c2ccco2)nc2c1c(=O)n(C)c(=O)n2C)C(=O)O (stereo not given),-8%,·,3%,·,-20%,·,·,0%
Cc1oc2c(C)c(O)ccc2c(=O)c1-c1cnn(-c2ccccc2)c1,1%,11%,-20%,-26%,2%,-17%,3.1%,-1%
COCCN(C(=O)Cn1nnc2ccccc21)C(C(=O)NC1CCCCC1)c1ccc(OC)cc1OC (stereo not given),8%,7%,-9%,-30%,46%[activator],?,0.0%,7%
# New compounds follow
SMILES,RE007 growth inh,LASV entry inh,NS1 inh,MARV entry inh,2A StopGo,Cruzain inh noDet,Cruzain inh Det,SARS PLP yeast
OC1(c2cccs2)CN(c2ccc(Cl)cc2)C2=[N+]1CCCS2 (stereo not given),4%,-5%,·,5%[46.1 µM],-23%,·,·,1%
CCN1C(=O)NC2C1N(S(C)(=O)=O)CCN2S(C)(=O)=O (stereo not given),-5%,8%,2%,7%,-18%,4%,4.8%,0%
CO/C(N)=C(\C#N)N=Cc1ccccc1Cl,6%,-5%,·,15%[46.1 µM],39%[activator],·,·,-2%
Cc1ccc(Cl)cc1N(C)C(=O)c1noc2c1CCCCC2,·,19%[46.1 µM],·,·,-5%,-12%,-5.7%,·
